# Screening data deposited in PubChem by National Center for Advancing Translational Sciences (NCATS).
# 2A StopGo: High Throughput Screening for Foot and Mouth Disease Virus Antivirals. human cells with a luciferase reporter of 2A StopGo recoding; control for the full effect not named in the record. Potency, µM (titrated, usually from 57.9 µM), without a hit: top-dose signal change, negative = less light. 1.2% of 410,000 active. AID 1159524, 2015; active = well fitted falling curve with a large enough effect; inconclusive = small, poorly fitted or top-dose-only effect; inactive = no such curve, though single readings can be large or run the other way; tested in HEK293T cells; also: % is scaled to controls: 0 for no effect and ±100 for the full control effect; nearly all actives have a fitted effect of over 45% in size; luciferase light after 4 h
# RE007 growth inh: qHTS Assay for Inhibitors of the HIV-1 protein Vpr | S. pombe RE007 Vpr strain, BacTiter-Glo ATP luminescence, 24 h; control for the full effect not named in the record | Potency, µM (doses to about 92.2 µM), for the others: top-dose activity change, negative = less growth | 0.21% of 360,000 active | AID 651644, 2012; active = well fitted falling curve with a large enough effect; inconclusive = small, poorly fitted or top-dose-only effect; inactive = no such curve, though single readings can be large or run the other way;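 also: % is scaled to controls: 0 for no effect and ±100 for the full control effect; nearly all actives have a fitted effect of over 50% in size; the assay follows cell death caused by Vpr and the record does not say whether a fall means rescue or toxicity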
#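 Fission yeast strain RE007, carrying one chromosomally integrated HIV-1 vpr copy, was seeded at OD 0.01 in PMG+AL medium with 23 nL pinned compound. After 24 h at 30 °C and 99% humidity, viability was read by BacTiter-Glo luminescence.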
# SARS PLP yeast: qHTS of Yeast-based Assay for SARS-CoV PLP; S. cerevisiae expressing SARS-CoV PLpro, growth rescue; control for the full effect not named in the record; Potency, µM (doses to about 32.9 µM), for the others: top-dose activity, positive = growth rescue; 0.19% of 330,000 active; AID 485353, 2010; active means well fitted rising curve with a large enough effect; inconclusive means small, poorly fitted or top-dose-only effect; inactive means no such curve, though single readings can be large or run the other way; also: 0% is about no effect; nearly all actives have a fitted effect of over 55% in size; growth read by luminescence after 48 h
# Lassa entry inh: qHTS for Inhibitors of binding or entry into cells for Lassa Virus; Lassa virus pseudotype entry inhibition, cell reporter; control for the full effect not named in the record; Potency, µM (titrated, usually from 37.9 µM), for the others: at the highest dose activity change, negative = inhibition, actives largely listed as inhibitors; 1.2% of 300,000 active; AID 540256, 2011; active means well fitted inhibition curve with a large enough effect; inconclusive means small, poorly fitted or top-dose-only effect, or effect the other way; inactive means flat fitted curve, though single readings scatter; tested in HEK293 cells; also: % is scaled to controls: 0 for no effect and ±100 for the full control effect; nearly all actives have a fitted effect of over 50% in size; luciferase read-out
# MARV entry inh: qHTS for inhibitors of binding or entry into cells for Marburg Virus | AID 540276, 2011 | 1.8% of 300,000 active | Potency, µM (top dose mostly 37.8 µM), for the others: top-dose activity change, negative = inhibition, actives largely listed as inhibitors | Marburg virus pseudotyped entry inhibition, cell reporter; control for the full effect not named in the record; about a third of the inactives were read at about 46 µM; active = well fitted inhibition curve with a large enough effect; inconclusive = small, poorly fitted or top-dose-only effect, or effect the other way; inactive = flat fitted curve, though single readings scatter; tested in HEK293 cells; about a fifth of its hits are not listed in these tables; also: % is scaled to controls: 0 for no effect and ±100 for the full control effect; luciferase read-out
# Cruzain inh noDet: qHTS Assay for Promiscuous and Specific Inhibitors of Cruzain (without detergent); Cruzipain (Trypanosoma cruzi), P25779; purified cruzain, Z-FR-AMC fluorescence, no detergent; Potency, µM, for inactives: max response, negative = inhibition, usual class: inhibitors; 2.3% of 200,000 active;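 also: plate controls were enzyme without inhibitor for no effect and buffer without enzyme for full effect; nearly all actives have a fitted effect of over 40% in size; top concentration of the series not given in the record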
# Target sequence (P25779 123-467 limits assumed): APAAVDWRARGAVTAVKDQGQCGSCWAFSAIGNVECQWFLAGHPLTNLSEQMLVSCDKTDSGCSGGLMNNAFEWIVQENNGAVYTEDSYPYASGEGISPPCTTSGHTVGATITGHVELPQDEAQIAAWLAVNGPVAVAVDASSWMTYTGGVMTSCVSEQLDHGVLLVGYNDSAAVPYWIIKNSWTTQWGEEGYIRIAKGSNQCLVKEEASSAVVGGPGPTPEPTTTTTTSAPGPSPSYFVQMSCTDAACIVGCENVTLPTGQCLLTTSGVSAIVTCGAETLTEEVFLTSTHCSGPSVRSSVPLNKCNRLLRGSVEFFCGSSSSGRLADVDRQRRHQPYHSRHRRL
#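 Purified cruzain at 1.5 nM, pre-incubated 15 min with compound at room temperature in 100 mM sodium acetate pH 5.5, 5 mM DTT, 0.00005% Triton X-100. Reaction started with 2 uM Z-FR-AMC; AMC fluorescence increase over 60 s gives rate.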
# NS1 inh: qHTS Assay for Inhibitors of Influenza NS1 Protein Function | S. cerevisiae slowed by influenza A NS1, growth recovery by OD600 | Potency, µM (titrated, usually from 46.1 µM), without a hit: at the top dose activity, positive = more growth | 0.4% of 270,000 active | AID 2326, 2010; active means well fitted rising curve with a large enough effect; inconclusive means small, poorly fitted or top-dose-only effect; inactive means no such curve, though single readings can be large or run the other way; also: nearly all actives have a fitted effect of over 50% in size
#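 Recovery from NS1-induced slow growth read by OD600 in budding yeast switched to galactose assay medium (pH 6.0, -URA) at 1:100 dilution. Compound 23 nl per well; the matching strain lacking NS1 serves as control.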
# Cruzain Triton: qHTS Assay for Promiscuous and Specific Inhibitors of Cruzain (with detergent); Cruzipain (Trypanosoma cruzi), P25779; purified cruzain, Z-FR-AMC fluorescence, 0.01% Triton; Potency, µM, for the others: max response, negative = inhibition, hits mostly inhibitors; 0.43% of 200,000 active; AID 1478, 2009;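 also: plate controls were neutral wells for no effect and buffer without enzyme for full effect; nearly all actives have a fitted effect of over 40% in size; top concentration of the series not given in the record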
#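 Read-out: AMC fluorescence (360 nm excitation, 450 nm emission), four reads over 2 min, first-to-third difference used. Conditions: cruzain 1.5 nM, Z-FR-AMC 2 uM, pH 5.5 acetate, 5 mM DTT, 0.01% Triton X-100.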
# Active calls of the source: *; ? = inconclusive; · = no result given; & = joins results of further samples; [ ] = remark or other dose. Unless noted, calls follow the shape of the dose curve; as a rule, active = well fitted curve in the direction sought with a large enough effect; inconclusive = small, poorly fitted or top-dose-only effect, or another doubt; inactive = no such curve, though single readings can be large; an effect the other way counts as inactive or inconclusive. Potency is read from the fitted curve at half-maximal effect.
smiles,Cruzain inh noDet,Lassa entry inh,Cruzain Triton,MARV entry inh,RE007 growth inh,2A StopGo,SARS PLP yeast,NS1 inh
CC(=O)c1ccc(S(=O)(=O)N2CCn3cccc3C2c2ccc(C)cc2)cc1 (centres undefined),-20%,?,-5.3%,·,·,-23%,·,·
COc1ccc(OC2C(=O)N(c3ccc(C)c(C)c3)C2c2ccc(OC)c(OC)c2)cc1 (centres undefined),?,?,-0.1%,?,-14%,10%,?,?
c1ccc(N2N=C(c3cccs3)CC2c2ccco2)cc1 (centres undefined),-13%,24%,-5.1%,22%,-2%,-18%,-5%,18%
Cc1ccc(C)c(NC(=O)c2cc(S(=O)(=O)N3CCc4ccccc4C3)ccc2F)c1,-3%,4%[46.1 µM],1.7%,·,·,-15%,·,·
C/C(CCC(C)C)=N\NS(=O)(=O)c1ccc(C)c([N+](=O)[O-])c1,·,·,·,·,12%,0%,-1%,-1%
Cc1ccc(Cl)cc1N1CCN(CCCNC(=O)c2ccc3nc(N4CCCCC4)sc3c2)CC1,8%,3%[46.1 µM],-0.9%,9%[46.1 µM],·,-38%,·,·
O=C1c2ccccc2C(=O)C1c1ccccc1F,·,18%,·,?,9%,5%,-3%,6%
O=C(Oc1ccc(Br)cc1)c1cccc(S(=O)(=O)N2CCOCC2)c1,·,0%,·,8%[46.1 µM],1%,-16%,-5%,-12%
O=Cc1cc(Br)c(OC(=O)N2CCOCC2)c(Br)c1,·,-13%[46.1 µM],·,16%[46.1 µM],9%,-8%,-4%,-5%
O=C(COc1ccccc1)Nc1nnc2n1CCS2,6%,2%[46.1 µM],-0.2%,·,·,-3%,·,·
CCN(CC)S(=O)(=O)c1cccc(-c2csc(C)n2)c1,·,·,·,·,-25%,4%,-3%,-5%
COc1cc2c(cc1OC)C(C(N)=O)NCC2 (centres undefined),·,1%,·,15%,18%,-2%,·,·
NC(=O)Nc1cc(Cl)ccc1Cl,·,?,·,23%,13%,-17%,-2%,-5%
O=C(NCc1cccc(CNC(=O)C(=O)NCC2CCCO2)c1)C(=O)NCC1CCCO1 (centres undefined),·,-8%,·,6%[46.1 µM],1%,8%,0%,2%
Cc1ccc(C(=O)CCC(=O)N2CCN(c3ccc(F)cc3)CC2)cc1,·,·,·,·,-3%,-27%,-1%,-16%
COc1ccc(Cl)cc1NC(=O)CCS(=O)(=O)c1nc(-c2cccs2)cc(C(F)(F)F)n1,?,?,-9.0%,18%[46.1 µM],·,32µM*,·,·
O=C(CCc1ccccc1)NCc1ccncc1,·,·,·,·,-14%,-5%,-2%,9%
CSc1ccc(CN(C)C(C)C(=O)NCc2ccccc2)cc1 (centres undefined),·,-6%,·,-7%[46.1 µM],-12%,-24%,-1%,·
COc1ccc(-c2n[nH]c(=S)n2-c2ccccc2C)cc1,·,?,·,13%,-5%,-5%,-1%,-44%
COc1ccc(Cc2nnnn2CC(=O)O)cc1,-11%,-8%,4.3%,16%,9%,0%,-4%,3%
Cc1nc(NC(=O)C2CC2)sc1C,5%,?,0.3%,-4%,-3%,-11%,-7%,-16%
COc1ccc(C2C=C(c3ccccc3)Nc3nc(NC(=O)c4cccc([N+](=O)[O-])c4)nn32)cc1 (centres undefined),-1%,16%[46.1 µM],-1.5%,-11%[46.1 µM],·,16%,·,·
CC(C)COC(=O)c1ccccc1OC(=O)c1ccncc1,·,-4%,·,22%[46.1 µM],-5%,0%,-2%,·
Cc1ccc(C2=NN(C(=O)CN3CCN(C4CCS(=O)(=O)C4)CC3)C(c3ccco3)C2)cc1 (centres undefined),·,-6%,·,?,1%,-10%,-2%,·
CSCCC(NS(=O)(=O)c1ccc(C)cc1)C(=O)N1CC=C(c2ccccc2)CC1 (centres undefined),·,-14%,·,2%,-15%,7%,-2%,·
COc1cccc(CNS(=O)(=O)c2ccc3c(c2)C(C(C)C)C(=O)N3)c1 (centres undefined),-1%,13%[46.1 µM],-3.6%,·,·,-21%,·,·
CCCCn1c(N)c(N(Cc2ccccc2OC)C(=O)COc2ccccc2OC)c(=O)[nH]c1=O,·,7%,·,-1%,15%,-11%,-4%,·
O=C(CCCN1C(=O)/C(=C/c2cccs2)SC1=S)Nc1cccc(O)c1,·,?,·,?,5%,0%,-2%,-5%
O=C(NCCc1ccccc1)C1CCC(Cn2c(=O)c3ccccc3n(Cc3cccc(F)c3)c2=O)CC1 (centres undefined),-8%,11%,-1.6%,19%,-4%,0%,16%,-2%
O=[N+]([O-])c1ccc(/C=C/c2ccc3ccccc3n2)cc1,·,2µM*,·,?,-4%,-65%,-4%,·
CCOC(=O)c1c(NC(C)=O)sc2c(OCC(O)CNC(C)(C)C)c(Br)ccc12 (centres undefined),·,·,·,·,6%,-11%,0%,0%
CCOC(=O)c1ccc(N2C(=O)c3n[nH]c(-c4cccs4)c3C2c2cccc(OC)c2)cc1 (centres undefined),?,?,-4.4%,10µM*,·,?,·,·
COc1ccc(CNC(=O)CCSCc2cccc(Cl)c2)cc1,2%,-1%,-7.3%,-1%,-24%,-28%,15%,-2%
Cn1cc(S(=O)(=O)NCC2CCCO2)c(=O)n(C)c1=O (centres undefined),·,1%[46.1 µM],·,-1%[46.1 µM],-7%,-1%,-1%,2%
COc1cccc(N(C(=O)c2ccn[nH]2)C2(C(=O)Nc3c(C)cccc3C)CCCCC2)c1,1%,-5%,-2.7%,-10%,-4%,-14%,-11%,-2%
Cc1cc(-c2ccc([N+](=O)[O-])cc2)cc(C)n1,·,0%[46.1 µM],·,?,-16%,-9%,·,·
CCC1CCCCN1C/C=C/c1ccccc1[N+](=O)[O-] (centres undefined),5%,-10%,7.5%,-12%,-10%,-11%,-2%,7%
O=C(NCc1nc2ccccc2[nH]1)c1ccc(S(=O)(=O)N2CCCC2)cc1,·,-8%,·,4%[46.1 µM],12%,4%,1%,·
COc1ccc(-c2nnc(SCC(=O)NC3CCCc4ccccc43)n2N)cc1 (centres undefined),9%,0%,-3.0%,-30%,5%,-17%,0%,5%
Cc1cc2ncn(/N=C/c3cc(Br)ccc3O)c2cc1C,?,·,3.1%,1%,·,·,12%,-61%
COc1ccc(CNc2nc3ccccc3n2C(C)C)cc1,·,·,·,·,-8%,-5%,3%,4%
COc1cc(NC(=O)CSc2ccc(-c3ccccn3)nn2)cc(OC)c1,-14%,?,-5.0%,?,-23%,0%&-13%,-5%,0%
O=C(CCN1Cc2ccccc2C1)c1ccc2c(c1)OCCO2,?,?,-25%,-17%,?,·,-49%,-87%
CCCCOC(=O)/C(C#N)=C\c1ccc(-c2ccc(Cl)cc2)o1,0%,1%[46.1 µM],1.9%,·,·,-6%,·,·
Nc1sc2c(c1C(=O)NCCc1ccccc1)CCC2,·,?,·,?,0%,15%,0%,5%
CC(NC(=O)Cc1ccc(F)cc1)c1ccccc1 (centres undefined),3%,7%,3.2%,30%[46.1 µM],19%,9%,-7%,-11%
O=C(Nc1ccccc1N1CCN(c2ccccc2)CC1)c1ccccc1,·,-21%,·,?,-7%,?,1%,·
N#Cc1c(N)nc(SCC(=O)NCc2ccc3c(c2)OCO3)c(C#N)c1-c1cccs1,1%,10%,-2.4%,-13%&-13%&-13%,4%,-9%,1%,-12%
CCN1CC(=O)Nc2cc(S(=O)(=O)N3CCOCC3)ccc21,·,-14%,·,-9%,1%,-13%,1%,·
Cc1cc(C)nc(/N=C2\NC(=O)CC(C(=O)O)N2c2ccc(C)c(C)c2)n1 (centres undefined),·,-13%,·,?,11%,-12%,1%,4%

# The list goes on:
smiles,Cruzain inh noDet,Lassa entry inh,Cruzain Triton,MARV entry inh,RE007 growth inh,2A StopGo,SARS PLP yeast,NS1 inh
O=C(NC1CCCC1)c1ccc(Cl)c(S(=O)(=O)N2CCOCC2)c1,·,0%,·,2%[46.1 µM],-4%,-3%,5%,5%
Cc1ccc(C)c(N2CCN(C(=O)c3cn(C)c4ccc(S(=O)(=O)N(C)C)cc4c3=O)CC2)c1,?,·,-1.1%,-1%,1%,-2%,-4%,-2%
Cc1ccc(S(=O)(=O)N(CC(=O)Nc2cccnc2)c2ccccc2C)cc1,·,·,·,-19%[46.1 µM],-26%,15%,1%,-14%
CCCCNCc1ccc(OCc2ccc(Cl)nc2)c(OC)c1,·,-11%,·,?,-20%,-1%,0%,2%
COCCNC(=S)Nc1ccc2nc(N3CCCC3)cc(C)c2c1,-18%,-2%,-17%,?,-27%,-12%,5%,10%
CCOc1ccc2ncc3c(-c4ccccc4)nn(CC(=O)Nc4cccc(F)c4)c3c2c1,1%,30%[46.1 µM],0.1%,·,·,-8%,·,·
CCOC(=O)CCCn1ncn2c(cc3occc32)c1=O,4%,?,-3.9%,27%,-1%,66%[activator],16%,5%
CC(N=C1NC(C)(C)Cc2ccccc21)C(=O)O (centres undefined),·,·,·,·,18%,6%,1%,2%
COc1ccc(-c2cc(C(F)(F)F)nc(NCc3cccnc3)n2)cc1,23%,5%,-8.2%,?,-5%,-25%,-5%,-45%
CCc1cccc(NC(=O)c2c(C)oc3ncnc(N4CCCCC4)c23)c1,22%,1%[46.1 µM],-8.3%,·,·,?,·,·
COc1ccc(-c2[nH]ncc2CN2CCN(Cc3cccs3)CC2)c(F)c1,·,28%[46.1 µM],·,?,-6%,-23%,0%,-2%
Oc1c(Cl)cc(Cl)cc1C1=NNC(c2ccc(Cl)cc2)C1 (centres undefined),·,-19%,·,?,1%,-2%,-6%,·
